GALR2 agonist – agonists of human galanin receptor 2 (GALR2); O43603; GALR2-expressing cells, agonist activation read-out; activation, %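 (tested at 5 µM)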; actives 0.48% (n = 140,000); AID 803;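 active = above mean plus 3 SD of all compounds, about 5% in these data, not always enough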;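 also: 0% = vehicle buffer wells and 100% = reference agonist at full effect; tested in CHO reporter cells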
Target sequence (O43603 whole entry, looked up): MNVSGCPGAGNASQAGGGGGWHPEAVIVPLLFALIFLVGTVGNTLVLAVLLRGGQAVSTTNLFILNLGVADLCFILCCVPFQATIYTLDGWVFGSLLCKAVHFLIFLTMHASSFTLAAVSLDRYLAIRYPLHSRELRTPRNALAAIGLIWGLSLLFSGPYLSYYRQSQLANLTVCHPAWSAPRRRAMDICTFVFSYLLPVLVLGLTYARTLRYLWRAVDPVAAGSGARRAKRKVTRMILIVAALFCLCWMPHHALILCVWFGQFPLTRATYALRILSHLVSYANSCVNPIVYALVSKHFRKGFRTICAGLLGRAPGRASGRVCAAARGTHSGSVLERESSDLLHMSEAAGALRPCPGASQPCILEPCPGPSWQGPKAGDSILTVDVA
Insulin prom inh – TRM-6 insulin promoter activity inhibition; AID 1273; inhibition, % at 2 µM; actives 0.9% (n = 130,000); TRM-6 cells (human fetal islet line), insulin promoter-eGFP reporter, imaging; reporter expression induced with tamoxifen;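 active = inhibition above the mean plus 3 SD, with well images judged a real hit on visual review, cut at about 60% in these data, passing the limit was not always enough; inconclusive = inhibition over the cutoff but images rejected on review; inactive = inhibition not above the cutoff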
PKD1 kinase inh – inhibitors of human PKD1 kinase. PKD1 kinase fluorescence polarization assay. inhibition, %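 (about 10 µM by stock and volumes)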. actives 0.056% (n = 200,000). AID 797;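 active = inhibition of 50% or more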;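 also: controls were vehicle for no effect and a reference inhibitor for full effect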
RGS16-Gao – modulates binding between human RGS16 and Galphao; O15492+P09471; bead-based flow cytometry RGS16-Galphao binding, fluorescence; actives lie on both sides; binding response (% of control), % at 10 µM; actives 0.38% (n = 220,000); AID 1441;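 active = below 25% or above 175%, edge rows of some plates excepted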;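 also: Galphao activated by GDP with aluminum fluoride before binding; 100% = wells without compound and 0% = beads without RGS; some results beyond the cut were filed as inactive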
Target sequence (O15492 whole entry, looked up): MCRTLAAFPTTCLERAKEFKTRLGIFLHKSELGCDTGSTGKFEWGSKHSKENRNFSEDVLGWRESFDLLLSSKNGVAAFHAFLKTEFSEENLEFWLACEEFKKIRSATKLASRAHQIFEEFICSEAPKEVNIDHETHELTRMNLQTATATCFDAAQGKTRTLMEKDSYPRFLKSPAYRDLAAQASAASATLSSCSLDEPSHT
Target sequence (P09471 whole entry, looked up): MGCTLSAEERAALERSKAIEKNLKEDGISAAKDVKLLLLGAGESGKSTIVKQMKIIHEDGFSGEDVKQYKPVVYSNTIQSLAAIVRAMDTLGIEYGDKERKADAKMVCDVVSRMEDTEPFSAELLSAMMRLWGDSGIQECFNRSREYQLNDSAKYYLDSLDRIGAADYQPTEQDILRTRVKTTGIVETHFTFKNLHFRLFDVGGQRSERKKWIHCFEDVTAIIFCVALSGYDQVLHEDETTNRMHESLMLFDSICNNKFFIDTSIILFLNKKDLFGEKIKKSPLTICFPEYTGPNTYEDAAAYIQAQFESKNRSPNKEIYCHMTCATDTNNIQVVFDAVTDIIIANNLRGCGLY
HSV replic up – HSV replication enhancement; actives 0.005% (n = 220,000); AID 1956; maximum fold increase; HSV replication augmentation in cells, fold increase;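 active = peak rise of 1.5-fold or more in the series; inconclusive = self-fluorescent or not available for retest; tested in PC3 cells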;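 also: first round at 10 µM; read as green reporter fluorescence; hits show the peak of a series up to 25 µM; 1 = signal of infected wells without compound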
Insulin prom inh cell count – recorded beside Insulin prom inh, whose call it bears; normalized cell count, %; measured here: cell count, toxicity; reference of the scale not given here;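 cells exposed to compound for 48 h; stained nuclei by imaging scaled within each plate; lower means fewer cells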
HSV replic up primary fold – further read-out of HSV replic up, marked with its call; fold increase; compound at 10 µM; measured here: primary screen fold increase 10 uM; tested in PC3 cells;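 GFP signal in the first replicate; 1 = infected wells without compound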
Active calls of the source: *; i = inactive; ? = inconclusive; . = not tested or not shown.

SMILES | GALR2 agonist | Insulin prom inh | Insulin prom inh cell count | PKD1 kinase inh | RGS16-Gao | HSV replic up | HSV replic up primary fold
Cc1ccc(C)c(N2CCN(C(=O)C3CCN(S(=O)(=O)c4cccc5nsnc45)CC3)CC2)c1 | -1.2 | -50 | 85 | -10 | 106 | . | .
Cc1cc(C(F)F)n2nc(C(=O)Nc3c(F)cc(F)cc3Br)nc2n1 | -0.7 | -213 | 80 | 1 | 106 | i | 0.88
O=C(N/N=C/c1ccc[nH]1)c1cccc(Br)c1 | -0.6 | -33 | 75 | -12 | 108 | i | 0.69
COCCSc1ccccc1C(=O)N1CCC(Cc2ccccc2)CC1 | . | . | . | -5 | 91 | i | 1
CC1CCN(C(=O)CNS(=O)(=O)c2ccc(Br)s2)CC1 | -3.0 | 8 | 87 | -5 | 95 | i | 0.77
Cc1ccccc1-c1nnn(Cc2ccc(-c3nn[nH]n3)cc2)n1 | . | . | . | 2 | 106 | i | 0.92
COc1ccccc1NC(=S)N(CCN1CCOCC1)Cc1ccccc1F | . | . | . | 0 | 111 | i | 0.88
COc1cc2[nH]c(=S)n(Cc3ccccc3)c(=O)c2cc1OC | . | . | . | -6 | 97 | i | 0.77
O=C(CSc1nnc2n(C3CCCCC3)c(=O)c3ccccc3n12)OC1CCCCC1 | -1.4 | . | . | -7 | 96 | i | 0.93
CC(=O)N1CC(=O)N=C1SCC(=O)Nc1nc(C)c(-c2ccccc2)s1 | . | . | . | -3 | 98 | i | 0.92
CC(C)(C)NC(=O)CSc1nc(N)c(NC(=O)c2ccccc2F)c(=O)[nH]1 | . | . | . | 3 | 97 | i | 0.92
Oc1c(Br)cc(Br)cc1C=Nc1ccc2c(c1)OCO2 | -0.3 | -3 | 104 | -7 | 97 | i | 1.2
O=C(NCc1ccco1)c1cccnc1Cl | -0.6 | . | . | 7 | 94 | i | 0.89
Cc1cccc(NC(=O)COC(=O)Cc2cccc(C(F)(F)F)c2)c1C | -1.5 | . | . | -17 | 104 | i | 1.2
CCOC(=O)c1cnc(-n2nc(C)cc2C)[nH]c1=O | . | . | . | . | 104 | i | 1
COc1ccc(C(=O)Nc2ccc(S(=O)(=O)Nc3nccnc3OC)cc2)cc1 | -1.3 | 24 | 141 | -2 | 105 | i | 0.9
COc1ccc2[nH]c(=O)c(CN(C(=O)c3cccnc3)c3ccccc3)cc2c1 | -0.9 | -22 | 109 | -6 | 100 | i | 1
CC1C/C(=N/N2C(=O)CSC2=S)CC(C)(C)C1 (stereo not given) | -0.6 | 0 | 90 | 3 | 117 | i | 0.89
O=C(c1ccc(NS(=O)(=O)c2cccc3cccnc23)cc1)N1CCCCC1 | . | -12 | 72 | 1 | 101 | i | 1.1
CCOC(=O)Cn1cnc2c(sc3nc(C)cc(C)c32)c1=O | . | . | . | . | 104 | i | 1.1

By substructure, the compounds so far containing two or more sulfur atoms (4)
SMILES | GALR2 agonist | Insulin prom inh | Insulin prom inh cell count | PKD1 kinase inh | RGS16-Gao | HSV replic up | HSV replic up primary fold
Cc1ccc(C)c(N2CCN(C(=O)C3CCN(S(=O)(=O)c4cccc5nsnc45)CC3)CC2)c1 | -1.2 | -50 | 85 | -10 | 106 | . | .
CC1CCN(C(=O)CNS(=O)(=O)c2ccc(Br)s2)CC1 | -3.0 | 8 | 87 | -5 | 95 | i | 0.77
CC(=O)N1CC(=O)N=C1SCC(=O)Nc1nc(C)c(-c2ccccc2)s1 | . | . | . | -3 | 98 | i | 0.92
CC1C/C(=N/N2C(=O)CSC2=S)CC(C)(C)C1 (stereo not given) | -0.6 | 0 | 90 | 3 | 117 | i | 0.89

Carrying on.
SMILES | GALR2 agonist | Insulin prom inh | Insulin prom inh cell count | PKD1 kinase inh | RGS16-Gao | HSV replic up | HSV replic up primary fold
Cc1ccc(S(=O)(=O)NC(=NC(C)C)c2ccccc2)cc1 | . | . | . | 5 | 102 | i | 1.1
COC(=O)Nc1nn(-c2ccc(Cl)cc2)c(=O)c(C#N)c1C | . | . | . | . | 101 | i | 1
O=C(CSc1ncccc1C(=O)O)c1ccc2ccccc2c1 | 0.3 | 16 | 93 | 7 | 91 | i | 1
CN(C)c1ccc(/C=C/C(=O)c2cccnc2)cc1 | . | . | . | . | 91 | i | 1
Cc1cccc2cc(C#N)c(NCCCn3ccnc3)nc12 | 2.3 | . | . | -12 | 104 | i | 0.95
NNC(=O)CNC(c1ccccc1)c1cc(Br)ccc1N (stereo not given) | . | . | . | . | 102 | i | 0.89
CCc1ccccc1NC(=O)Nc1cccc(F)c1 | . | . | . | -3 | 102 | i | 0.99
COc1ccc(S(=O)(=O)O/N=C2\CCCc3ccccc32)cc1 | -0.7 | 0 | 122 | 0 | 96 | . | .
Cc1ccccc1Nc1nc(N)nc(CSc2nc3ccccc3c(=O)n2C)n1 | -3.5 | 29 | 110 | -2 | 99 | i | 0.78
CCC1CCC(c2nnc(-c3ccc([N+](=O)[O-])cc3)o2)CC1 (stereo not given) | 0.1 | 20 | 125 | -6 | 102 | i | 0.92
CCC(=O)NCCNc1nc2cc(C)c(C)cc2cc1C#N | -0.4 | 22 | 77 | -16 | 103 | i | 0.88
CCn1c(-c2cccnc2)n[nH]c1=S | -1.8 | -23 | 133 | -6 | 42 | i | 0.89
COc1ccc(C)cc1N(C(=O)COc1cccc(F)c1)c1nc2ccccc2s1 | -1.3 | . | . | -2 | 97 | i | 1.2
CC(C)N1CSC(=S)N(Cc2ccccc2)C1 | . | . | . | -8 | 92 | i | 1
COc1ccc(-c2csc(NC(=O)c3cccs3)c2C(=O)O)cc1OC | . | 21 | 121 | -1 | 100 | i | 0.95
CN(Cc1ccccc1)c1nc(N)c([N+](=O)[O-])c(NCc2ccccc2)n1 | 1.1 | 21 | 130 | 1 | 103 | i | 1.1
CCOCCCNc1ncnc2c1[nH]c1ccccc12 | -0.8 | 64 | 164 | -2 | 126 | i | 0.89
CCOC(=O)C1(Cc2cccc(OC)c2)CCN(C(C)CC(C)(C)O)CC1 (stereo not given) | . | . | . | -3 | 101 | i | 0.97
N/C(=N\c1nc2c(c(=O)[nH]1)CCC2)Nc1cccc(Cl)c1 | -1.1 | -22 | 126 | -11 | 111 | i | 0.73
CCN1CCN(C(=O)/C=C/c2ccc([N+](=O)[O-])cc2)CC1 | -0.6 | -27 | 98 | -11 | 104 | i | 1.1
O=C(O)COCC(=O)N1CCN(C(c2ccccc2)c2ccccc2)CC1 | . | . | . | . | 101 | i | 1.1
CCOC(=O)c1cc(-c2ccc(C)cc2)nc2nc(SC)[nH]c(=O)c12 | -1.3 | 31 | 84 | -11 | 70 | i | 0.89
COc1ccc(C)cc1NC(=O)c1nnn(Cc2cccc(C(F)(F)F)c2)c1N | . | 7 | 93 | 3 | 106 | i | 0.84
O=C(c1ccc(Cl)cc1)c1ccc(CN2C(=O)c3ccccc3C2=O)o1 | -0.4 | 27 | 92 | -4 | 102 | i | 0.83
O=C(NCc1ccncc1)c1cncc(Br)c1 | . | . | . | 4 | 101 | i | 0.88
O=C1CSC(c2cccnc2)N1c1ccc(F)cc1 (stereo not given) | -0.1 | 25 | 124 | 5 | 103 | i | 0.82
CCOC(=O)c1ccc(NC(=O)CC2OCCN(CC)C2=O)cc1 (stereo not given) | -1.1 | . | . | 7 | 101 | i | 0.83
CSc1nc(SCC(N)=O)c2c3c(sc2n1)CN(C)CC3 | -1.2 | -42 | 144 | -3 | 97 | i | 0.94
CC1=C(C(=O)Nc2ccccn2)C(c2ccc(Cl)cc2Cl)NC(=S)N1 (stereo not given) | . | -8 | 127 | 1 | 92 | i | 0.9
O=C(CCNC(=O)c1ccccc1)NCC1CCCCC1 | . | 45 | 60 | 0 | 67 | i | 0.98
CC1CN(C(=O)Nc2ccc3snnc3c2)c2ccccc21 (stereo not given) | -0.3 | . | . | -12 | 93 | i | 0.91
COc1cc(C)c(Cl)cc1S(=O)(=O)NCc1ccco1 | -2.8 | -36 | 89 | -3 | 100 | i | 0.99
CC(C)CCn1c(CN2CCN(c3cccc(Cl)c3)CC2)nc2c1c(=O)n(C)c(=O)n2C | . | . | . | . | 70 | i | 1
O=C(Nc1ccccc1)OC1C2CCC1C(N1CCCCC1)CC2 (stereo not given) | -1.2 | -64 | 139 | 3 | 101 | i | 1.1
O=C(NCc1ccco1)c1ccc(Cl)nc1 | . | . | . | . | 102 | i | 1.1
Cc1ccc2c(c1)C(c1ccc([N+](=O)[O-])cc1)=NNC(c1ccc(Br)cc1)=N2 | 0.1 | -61 | 168 | -5 | 105 | i | 0.91
O=C(NCc1cccnc1)/C(=C\c1ccc(-c2ccc(Br)cc2)o1)S(=O)(=O)c1ccccc1 | -0.5 | 4 | 94 | 0 | 84 | i | 0.82
CCOC(=O)N/N=C/c1cn(Cc2ccc(F)cc2)c2ccccc12 | . | . | . | . | 103 | i | 0.95
CCn1c(NCc2cccc(OC)c2OC)nc2ccccc21 | -1.9 | -3 | 85 | 7 | 100 | i | 0.99
O=C(NC1CC1)C1=C[C@H](C2CCCCC2)C[C@H](OCCCCO)O1 | . | . | . | . | 102 | i | 1
CCOc1c2ccc(C(=O)NCc3cc(C(F)(F)F)cc(C(F)(F)F)c3)cc2nn1CCOC | -1.1 | . | . | 3 | 95 | i | 1.1
O=C(CCc1nc2ccccc2[nH]c1=O)OCc1ccc(S(=O)(=O)N2CCOCC2)cc1 | -1.0 | -56 | 75 | 0 | 101 | . | .
CC(C)(C)c1cc(=O)[nH]c(SCc2ccccc2Cl)n1 | . | . | . | 4 | 102 | i | 1.1
O=C(NC1CCCCCC1)c1c2c(nc3ccccc13)CCN(Cc1ccccc1)C2 | -0.5 | -32 | 89 | -3 | 83 | i | 1
S=C(NCc1cccnc1)Nc1ccc(Cl)c(Cl)c1 | -0.8 | -23 | 87 | -5 | 99 | i | 0.94
C=Cc1ccc(CSc2cc(C)nc3nc(C)nn23)cc1 | . | . | . | . | 99 | i | 0.87
C=CCNc1nc(N)c(C(=O)c2ccc3c(c2)OCO3)s1 | 0.7 | . | . | 24 | 97 | i | 1
CCC(C)(C)NC(=O)C(c1ccc(C)o1)N(Cc1cccs1)C(=O)Cn1nnc2ccccc21 (stereo not given) | -1.0 | -11 | 88 | -12 | 102 | ? | .
O=C(CC1SCCNC1=O)Nc1ccc(Cl)c(Cl)c1 (stereo not given) | . | . | . | 1 | 104 | i | 0.95
COc1ccc(NC(=O)CCSCCC(=O)Nc2ccc(OC)cc2OC)c(OC)c1 | -1.5 | -63 | 43 | 1 | 107 | i | 1
Further records:
SMILES | GALR2 agonist | Insulin prom inh | Insulin prom inh cell count | PKD1 kinase inh | RGS16-Gao | HSV replic up | HSV replic up primary fold
COc1ccc(CCNC(=O)c2cn3ccc(C)cc3n2)cc1OC | . | 64 | 91 | -3 | 167 | i | 1
CCOC(=O)c1ccc(NC(=O)C2CCCN(S(=O)(=O)c3ccc(F)cc3)C2)cc1 (stereo not given) | -2.5 | 10 | 109 | -10 | 106 | i | 0.9
CCCNC(=O)NC(=O)COC(=O)c1ccc(OC)c(S(=O)(=O)N2CCCc3ccccc32)c1 | -1.7 | . | . | 7 | 96 | i | 1
CCCc1cc(C(=O)Nc2cccnc2Cl)no1 | -3.9 | -8 | 100 | -8 | 98 | i | 1
Cc1ccc(C(=O)NCC(=O)OC(C)C(=O)NCCC2=CCCCC2)cc1C (stereo not given) | 1.1 | -21 | 28 | 11 | 99 | i | 0.97
NC(=O)c1ccccc1NC(=O)c1ccccc1S(=O)(=O)c1ccccc1[N+](=O)[O-] | 0.6 | 31 | 81 | 10 | 132 | i | 0.95
CCc1nc(C)cn1S(=O)(=O)c1cc(OC)c(C)cc1C | -3.1 | . | . | -5 | 98 | i | 0.88
COc1ccc(OC)c(S(=O)(=O)N2CCC(C(=O)N(C)Cc3ccccc3)CC2)c1 | . | . | . | . | 91 | i | 0.97
Oc1ccc(Br)cc1-c1cc(-c2ccccc2F)[nH]n1 | 0.0 | -50 | 68 | 2 | 103 | i | 0.89
Cc1ccccc1NC(=O)COC(=O)c1ccc(CSc2ccc(Cl)cc2)cc1 | -0.6 | . | . | 2 | 95 | i | 0.9
COc1cccc(NC(=O)CN2CCN(S(=O)(=O)c3ccc(F)cc3)CC2)c1 | -1.9 | 23 | 84 | -1 | 99 | i | 0.72

High-throughput results from PubChem.
